High-throughput results deposited in PubChem by Johns Hopkins Ion Channel Center.
KCNQ2 block – KCNQ2 potassium channel inhibitors, primary screen, cell-based, CHO-K1, FluxOR thallium flux, B-score (AID 2156); actives 1.1% (n = 310,000); B-score at 10 µM; 20 min; hits give low values; only compounds with negative scores are shown here; some inactives read as strong as hits; Potassium voltage-gated channel subfamily KQT member 2 (Rattus norvegicus), O88943;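 active = fluorescence ratio B-score at most minus 3 library SDs, with starting brightness B-score within 2 library SDs, cut at about -5.5 in these data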
Target sequence (O88943 whole entry, looked up): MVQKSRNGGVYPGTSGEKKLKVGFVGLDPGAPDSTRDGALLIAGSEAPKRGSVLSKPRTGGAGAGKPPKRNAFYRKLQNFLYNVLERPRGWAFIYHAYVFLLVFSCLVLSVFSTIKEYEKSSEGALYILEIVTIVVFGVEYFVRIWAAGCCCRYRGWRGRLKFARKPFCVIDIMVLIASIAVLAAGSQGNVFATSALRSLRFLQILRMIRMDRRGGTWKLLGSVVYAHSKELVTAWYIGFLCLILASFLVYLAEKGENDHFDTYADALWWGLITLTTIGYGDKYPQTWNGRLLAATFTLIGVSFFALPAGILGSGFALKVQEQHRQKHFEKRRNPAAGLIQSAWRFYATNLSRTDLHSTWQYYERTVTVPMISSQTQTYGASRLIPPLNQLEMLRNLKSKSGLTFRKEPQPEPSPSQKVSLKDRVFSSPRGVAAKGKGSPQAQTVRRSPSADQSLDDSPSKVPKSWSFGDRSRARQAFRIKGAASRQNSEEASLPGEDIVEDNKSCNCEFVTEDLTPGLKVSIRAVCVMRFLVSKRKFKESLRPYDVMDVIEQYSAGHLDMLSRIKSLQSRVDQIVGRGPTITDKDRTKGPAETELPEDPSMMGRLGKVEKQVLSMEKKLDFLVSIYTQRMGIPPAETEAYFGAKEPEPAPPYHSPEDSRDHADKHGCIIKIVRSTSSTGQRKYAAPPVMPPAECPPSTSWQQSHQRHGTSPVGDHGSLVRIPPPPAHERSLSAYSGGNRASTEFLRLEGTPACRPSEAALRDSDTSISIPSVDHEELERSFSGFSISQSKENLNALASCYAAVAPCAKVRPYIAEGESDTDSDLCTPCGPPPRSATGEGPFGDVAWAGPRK
KCNQ2 block baseline – second read-out of KCNQ2 block, no call of its own (marks repeat the call); B-score; measured here: initial fluorescence intensity artifact check;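 brightness before thallium and not channel activity; 0 = typical well and far values either way flag optical interference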
The depositor's hits bear a star; i = inactive. Not all compounds are listed; rates above refer to the full screens.

SMILES	KCNQ2 block	KCNQ2 block baseline
Cc1c(-c2ccccn2)c(=O)[nH]n1-c1ccc(F)cc1	i	-0.48
NC(=O)c1ccsc1NC(=O)C1CCCN1S(=O)(=O)c1ccc(Cl)cc1 (configuration not stated)	i	1.4
Cc1ccccc1OCC(=O)NCCS(=O)(=O)N1CCN(c2ccc(F)cc2)CC1	i	1.3
C/C(=N\NC(=O)c1ccc(NS(=O)(=O)c2cccs2)cc1)c1ccncc1	i	-0.06
CS(=O)(=O)n1nc(C(=O)N2CCOCC2)nc1N	i	2.1
Cn1c(CN2CCCCC2)c(C#N)c2ccccc21	i	-0.45
CCOC(=O)C1CCCN(C(=O)CNC(=O)c2nn(-c3ccc(OC)c(Cl)c3)c(=O)c3ccccc23)C1 (configuration not stated)	i	0.17
Cc1cc(=O)[nH]c(N/N=C/c2ccc(O)c(O)c2)n1	i	-0.31
COCCn1c(=S)[nH]c2cc(C(=O)N3CCc4ccccc4C3)ccc2c1=O	i	-0.1
Cc1cc(C)n(CC(=O)N/N=C/c2c[nH]c3ccccc23)n1	i	-3.7
COC(=O)c1cn[nH]c1NC(=S)Nc1ccc(Cl)c(Cl)c1	i	-1.6
CCn1cc(C(=O)O)c(=O)c2cc(F)c(N3CCN(S(=O)(=O)c4ccc5c(c4)OCCO5)CC3)cc21	i	-0.78
CCOC(=O)C1=C(C(C)=O)C(c2cccnc2)C(C#N)=C(N)O1 (configuration not stated)	i	-0.48
CCOC(=O)c1[nH]c2ccccc2c1NC(=S)Nc1cc(C)ccc1C	i	1.2
Cn1c(=O)c2[nH]c(CNCc3ccccc3Cl)nc2n(C)c1=O	i	-0.15
Cc1ccccc1-c1nc(CS(=O)(=O)CC(=O)NC2CCCC2)c(C)o1	i	-0.02
COCCCNS(=O)(=O)c1ccc(OC)c(Cl)c1Cl	i	-0.49
Cc1ccc(OCc2nnc(SCc3ccc(C#N)cc3)n2-c2ccc(C)cc2)cc1	i	0.45
Cc1cc([N+](=O)[O-])ccc1NC(=O)Nc1ccc(F)cc1F	i	0.03
Cc1ccc(N2CC(C(=O)N3CCOCC3)CC2=O)cc1Cl (configuration not stated)	i	-0.44
Cc1ccc(NS(=O)(=O)c2ccc(C(=O)NNC(=O)c3ccccc3O)cc2)cc1	i	-0.36
COc1ccc2[nH]c3c(=O)n(CCCCC(=O)NCCC(C)C)c(=S)[nH]c3c2c1	i	-0.01
COc1cccc(NC(=O)c2oc3ccccc3c2NC(=O)c2ccc3c(c2)OCO3)c1	i	0.1
COc1ccccc1NC(=O)NNC(=O)C(C)Oc1ccc2ccccc2c1 (configuration not stated)	i	1
CCOP(=O)(OCC)c1nc(-c2cccc3ccccc23)oc1NCCc1ccc(OC)cc1	i	-0.1
O=C(c1cc2cc([N+](=O)[O-])ccc2oc1=O)N1CCOCC1	i	1.8
COc1ccc(CCN2C(=O)CS/C2=N\NC(=O)c2ccc(C(C)(C)C)cc2)cc1OC	i	1.2
CC1(C)CC(=O)C2=C(C1)OC(N)=C(C#N)C21C(=O)N(Cc2ccccc2Cl)c2ccccc21 (configuration not stated)	i	-0.85
Nc1nc2c(F)cccc2s1	i	0.92
Cc1cc(C)nc(-n2nc(C)cc2NC(=O)c2cc3ccccc3oc2=O)n1	i	0.76
COCCCNC(=S)N(CCN(C)C)Cc1cc2cc3c(cc2[nH]c1=O)OCCO3	i	0.21
O=C(Nc1ccccc1C(=O)N1CCCCCC1)c1ccc(Cl)cc1	i	-0.96
O=C(NCC(=O)N1CCN(S(=O)(=O)/C=C/c2ccccc2)CC1)c1ccc(Cl)cc1	i	-0.71
COc1ccccc1-n1c2nc3ccccc3nc2c2c(=O)n(-c3cc(C)cc(C)c3)cnc21	i	0.5
Oc1cccc(Nc2ncnc3ccccc23)c1	i	-0.87
O=C(COC(=O)C1CCN(S(=O)(=O)c2c(Cl)cccc2Cl)CC1)NCc1ccco1	i	-0.21
Cc1ccc([N+](=O)[O-])cc1NC(=O)Nc1ccc(S(N)(=O)=O)cc1	i	-1.1
Cn1nnnc1Sc1ncnc2scc(-c3ccccc3)c12	i	-0.89
Cc1ccc(NC(=O)c2cc([N+](=O)[O-])ccc2NCc2cccnc2)cc1Cl	i	-0.86
COc1ccc(C(=O)Nc2ncccc2C)cc1S(=O)(=O)N1CCCc2ccccc21	i	0.6
CC(C)OC(=O)c1cccnc1N1CCN(c2cccc(Cl)c2)CC1	i	0.11
CC(NC(=O)OCc1ccccc1)C(=O)Oc1cc2oc(=O)cc(-c3ccccc3)c2cc1Cl (configuration not stated)	i	0.29
CCCn1c(NC(=O)C2CCN(S(=O)(=O)c3cccs3)CC2)nc2ccccc21	i	-0.54
Cc1ccc(S(=O)(=O)N2CCCC2C(=O)NCc2ccccc2F)cc1 (configuration not stated)	i	1.1
CCN(Cc1ccccc1)C(=O)CSc1nncn1C	i	-0.46
CN(CC(=O)Nc1ccccc1F)CC(=O)Nc1ccccc1Br	i	0.6
NS(=O)(=O)c1ccc(CCNC(=O)CN2CCN(c3ccccc3O)CC2)cc1	i	2.6
COc1ccc(NC(=O)NCc2cccnc2)cc1OC	i	3
CCN(CC)S(=O)(=O)c1ccc2[nH]cc(C(=O)NCCCN3CCCCC3C)c(=O)c2c1 (configuration not stated)	i	-1.9
Cc1csc(=O)n1CC(=O)OCC(=O)Nc1ccc(Cl)cc1F	i	0.93
CN(C)/C=C/C1=CC(=O)CC(C)(C)C1	i	0.68
O=C(CCN1C(=O)/C(=C/c2ccccc2)SC1=S)N[C@@H](CO)Cc1ccccc1	i	-2.1
CCC(C(=O)OCC(=O)NC(=O)c1ccccc1OC)c1ccccc1 (configuration not stated)	i	0.94
CC1CCC2(CC1)NC(=O)N(CC(=O)NC(=O)Nc1ccc3c(c1)OCCO3)C2=O (configuration not stated)	i	-0.28
O=C(COC(=O)c1cc2ccccc2o1)c1ccccc1	i	1
CCOc1ccc(C(C(=O)NC2CCCC2)N(CCCO)C(=O)c2ccc(-c3ccccc3)[nH]2)cc1 (configuration not stated)	i	1
COc1ccc(OC)c(S(=O)(=O)Nc2cc3c(cc2N2CCCC2)n(C)c(=O)c(=O)n3C)c1	i	0.25
Cc1cccc(N2CCN(C(=O)C3CCCN(S(=O)(=O)c4c(C)noc4C)C3)CC2)c1C (configuration not stated)	i	-0.49
CC(C)C[C@H](NC(=O)C1CCN(S(=O)(=O)c2ccccc2)CC1)C(=O)NCc1cccnc1	i	-0.08
COc1ccc(NC(=O)c2c3c(nc4ccccc24)CCC3)cc1	i	0.01

Reformatted with each value named: 4 of the compounds above
> CC1CCC2(CC1)NC(=O)N(CC(=O)NC(=O)Nc1ccc3c(c1)OCCO3)C2=O (configuration not stated)
  KCNQ2 block: i; KCNQ2 block baseline: -0.28

> O=C(COC(=O)c1cc2ccccc2o1)c1ccccc1
  KCNQ2 block: i; KCNQ2 block baseline: 1

> CCOc1ccc(C(C(=O)NC2CCCC2)N(CCCO)C(=O)c2ccc(-c3ccccc3)[nH]2)cc1 (configuration not stated)
  KCNQ2 block: i; KCNQ2 block baseline: 1

> COc1ccc(OC)c(S(=O)(=O)Nc2cc3c(cc2N2CCCC2)n(C)c(=O)c(=O)n3C)c1
  KCNQ2 block: i; KCNQ2 block baseline: 0.25

(listing goes on)
SMILES	KCNQ2 block	KCNQ2 block baseline
O=C(Nc1ccc(NC(=O)c2cccnc2)cc1)c1ccccc1	i	-1.5
Cc1ccccc1-n1c(-c2ccco2)n[nH]c1=S	i	1.4
CSc1ccccc1OCc1cc(C(=O)NCc2cccc(C)n2)no1	i	-0.79
Cc1cc(C(=O)CSc2nnc(-c3ccccc3)n2-c2ccccc2)c(C)n1-c1ncn[nH]1	i	-2.4
O=C(N/N=C/c1ccc(Br)cc1)c1ccccc1-n1cccc1	i	1.6
Cc1ccccc1C(=O)OCC(=O)N(C)c1c(N)n(Cc2ccccc2)c(=O)[nH]c1=O	i	-0.04
CCOC(=O)CSc1nc2sc3c(c2c(=O)n1-c1ccc(OCC)cc1)CCN(C)C3	i	-1.7
COc1cccc(-c2ccc(C#N)c(OC(=O)c3c(Cl)cccc3Cl)n2)c1	i	-1.1
COCCSc1nnc(NC(=O)C2CCCO2)s1 (configuration not stated)	i	0.4
CC(C)CNC(=O)CN1C(=O)NC(Cc2c[nH]c3ccccc23)C1=O (configuration not stated)	i	-0.22
O=C(O)C1CCC1C(=O)Nc1nc(-c2ccc(Cl)s2)cs1 (configuration not stated)	i	-0.99
O=C1C=C(NCc2ccc(Cl)cc2)CC(c2ccco2)C1 (configuration not stated)	i	0.3
C/C(=N\NC(=O)CSc1nc2ccccc2c(=O)n1-c1ccccc1C)c1cccs1	i	-1.3
Nc1cc(S(=O)(=O)N2CCOCC2)ccc1Oc1ccc(F)cc1	i	-0.02
CCOC(=O)N1CCC(N2Cc3cccc(C(=O)Nc4ccc(N(CC)CC)cc4C)c3C2=O)CC1	i	0.37
COc1ccc(S(=O)(=O)NC(CC(=O)NCc2ccccc2OC)c2ccco2)cc1 (configuration not stated)	i	1.5
COc1cccc(-c2ccc(C#N)c(OC(=O)c3ccc(Cl)cc3)n2)c1	i	1.2
CCOC(=O)c1c(NC(=O)CN2C(=O)c3ccccc3C2=O)sc(Cc2ccc3c(c2)OCO3)c1C	i	-0.69
CC1CCC/C(=N\NC(=O)Nc2ccccc2)C1 (configuration not stated)	i	-0.8
CC(=O)Nc1ccc(OC(=O)c2cc3cc(Br)ccc3oc2=O)cc1	i	1.1
COc1ccc(C)cc1S(=O)(=O)Nc1cccc(-c2ccc(N3CCCCCC3)nn2)c1	i	1.2
COc1ccc(-c2[nH]ncc2CN(C)Cc2c(C)n[nH]c2C)c(OC)c1	i	-0.4
COc1ccc(-c2cn(-c3ccc(C)cc3)c(=O)n2CC(=O)Nc2ccc(OC)cc2OC)cc1	i	-0.48
Cc1ccc(C)c(-c2nnc(NC(=O)COc3ccccc3)o2)c1	i	1.8
O=C(Oc1nsnc1N1CCOCC1)N1CCCCC1	i	0.36
COc1ccccc1OCCCC(=O)Nc1ccc2c(c1)OCCO2	i	-0.02
Cc1ccc(S(=O)(=O)N2CCCCC2CCNC(=O)C(=O)NCCc2ccco2)cc1 (configuration not stated)	i	-0.57
COc1ccc([N+](=O)[O-])cc1NC(=O)CCN1CCOCC1	i	0.43
O=C(Cc1ccc([N+](=O)[O-])cc1)N1CCN(c2ccc([N+](=O)[O-])cc2)CC1	i	-0.77
Cc1cccc(N/N=C/c2ccc(O)c(O)c2O)c1	i	-0.86
COC(=O)c1sc(=S)n(Cc2ccccc2)c1C	i	-0.01
O=C(c1ccccc1)N1CCN(C(=O)c2cc3ccccc3o2)CC1	i	-0.33
O=C(Cc1ccc([N+](=O)[O-])cc1)N1CCCc2ccccc21	i	-0.51
CCn1c(SCC(=O)OCc2ccccc2)nnc1-c1ccco1	i	0.11
CCN(CC)c1ccc(/C=N/NS(=O)(=O)c2cccc([N+](=O)[O-])c2)cc1	i	-0.55
NS(=O)(=O)c1ccc(CCN=Cc2ccccc2O)cc1	i	2.1
COc1ccc(/C=N/NC(=O)c2ccccc2)cc1CN1CCN(c2ccc(F)cc2)CC1	i	-0.05
O=[N+]([O-])c1ccc(N2CCNCC2)cc1Sc1nc2ccccc2[nH]1	i	-0.2
COc1ccccc1N1CCN(C(=O)NCc2ccc(Cl)cc2)CC1	i	-0.37
CCCN(CC(=O)Nc1ccccc1C)C(=O)c1oc2ccc(OCC)cc2c1C	i	0.67

A second format for 4 compounds above:
SMILES: COc1ccc(-c2cn(-c3ccc(C)cc3)c(=O)n2CC(=O)Nc2ccc(OC)cc2OC)cc1
  KCNQ2 block: i; KCNQ2 block baseline: -0.48
SMILES: Cc1ccc(C)c(-c2nnc(NC(=O)COc3ccccc3)o2)c1
  KCNQ2 block: i; KCNQ2 block baseline: 1.8
SMILES: O=C(Oc1nsnc1N1CCOCC1)N1CCCCC1
  KCNQ2 block: i; KCNQ2 block baseline: 0.36
SMILES: COc1ccccc1OCCCC(=O)Nc1ccc2c(c1)OCCO2
  KCNQ2 block: i; KCNQ2 block baseline: -0.02

(next part)
SMILES	KCNQ2 block	KCNQ2 block baseline
COc1ccc(/C=C(/NC(=O)c2ccccc2)C(=O)N2CCC(C)CC2)cc1	i	-1.4
CCOC(=O)N1CCN(C(=O)COc2ccc(S(=O)(=O)NCC(C)C)cc2C)CC1	i	-0.64
COc1cccc(N2C(=O)Nc3ccc(Br)cc3C2(O)C(=O)NCCCN(C)C)c1 (configuration not stated)	i	-1.6
O=C(/C=C/c1ccc(Br)cc1)NCCCn1ccnc1	i	0.58
CN1CC2=Cc3ccccc3OC23Oc2ccccc2C=C3C1	i	0.07
C/C(=N\NC(=O)CCC(=O)O)c1c(-c2ccccc2)c2cc(Br)ccc2[nH]c1=O	i	-0.91
COc1ccc(-c2oc3ccccc3c(=O)c2OC(=O)c2ccc(C)cc2)cc1	i	0.01
CC(C)COc1ccc(N)cc1OCC(C)C	i	2
Cc1ccc(CCNC(=O)c2coc3nc4ccccc4nc23)cc1	i	-1.3
O=S(=O)(NC1Cc2ccccc2C1)c1ccccc1	i	0.03
COc1ccc(S(=O)(=O)NCc2cccs2)cc1	i	-0.99
Cc1ccc2cc(CN(CCCO)S(=O)(=O)c3cccc4nsnc34)c(=O)[nH]c2c1	i	-0.05
CC(C)CCn1c(=O)c2ccccc2n2c(CCC(=O)NCC3CCCO3)nnc12 (configuration not stated)	i	-1.7
CC(=O)OC[C@H]1COc2ccc3ccccc3c2[C@H]1N(C)C(C)=O	i	0.07
CCOc1ccc(-n2cnnn2)cc1S(=O)(=O)NCc1ccccc1	i	-0.24
O=C(NCc1cccnc1)c1cnc2sccn2c1=O	i	-0.27
CCc1nc(C)cn1S(=O)(=O)c1ccc(Br)cc1	i	1.2
